Screening results (PubChem BioAssay)
RE007 growth inh: less growth of the S. pombe RE007 Vpr strain | AID 651644 | S. pombe RE007 Vpr strain, BacTiter-Glo ATP luminescence, 24 h; control for the full effect not named in the record | 360,000 compounds, 0.21% hits | Potency, µM (titrated, usually from 92.2 µM), for inactives: at the highest dose activity change, negative = less growth; active = well fitted falling curve with a large enough effect; inconclusive = small, poorly fitted or top-dose-only effect; inactive = no such curve, though single readings can be large or run the other way;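 also: % is scaled to controls: 0 for no effect and ±100 for the full control effect; nearly all actives have a fitted effect of over 50% in size; the assay follows cell death caused by Vpr and the record does not say whether a fall means rescue or toxicity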
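Fission yeast RE007 carrying one integrated HIV-1 vpr copy, seeded at OD 0.01 in PMG+AL medium with 23 nL pinned compound. Grown 24 h at 30 degrees; viability read by BacTiter-Glo luminescence after 5 min.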
SARS PLP yeast: blocks SARS-CoV papain-like protease in a yeast assay; AID 485353; 330,000 compounds, 0.19% hits; Potency, µM (doses to about 32.9 µM), without a hit: at the top dose activity, positive = growth rescue; S. cerevisiae expressing SARS-CoV PLpro, growth rescue; control for the full effect not named in the record; active means well fitted rising curve with a large enough effect; inconclusive means small, poorly fitted or top-dose-only effect; inactive means no such curve, though single readings can be large or run the other way; also: 0% is about no effect; nearly all actives have a fitted effect of over 55% in size; growth read by luminescence after 48 h
Cruzain inh Det: blocks cruzain activity in presence of Triton detergent | P25779 | purified cruzain, Z-FR-AMC fluorescence, 0.01% Triton | Potency, µM, inactives show max response, negative = inhibition, hits mostly inhibitors | 200,000 compounds, 0.43% hits;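 also: plate controls were neutral wells for no effect and buffer without enzyme for full effect; nearly all actives have a fitted effect of over 40% in size; top concentration of the series not given in the record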
Target sequence (P25779 123-467 limits assumed): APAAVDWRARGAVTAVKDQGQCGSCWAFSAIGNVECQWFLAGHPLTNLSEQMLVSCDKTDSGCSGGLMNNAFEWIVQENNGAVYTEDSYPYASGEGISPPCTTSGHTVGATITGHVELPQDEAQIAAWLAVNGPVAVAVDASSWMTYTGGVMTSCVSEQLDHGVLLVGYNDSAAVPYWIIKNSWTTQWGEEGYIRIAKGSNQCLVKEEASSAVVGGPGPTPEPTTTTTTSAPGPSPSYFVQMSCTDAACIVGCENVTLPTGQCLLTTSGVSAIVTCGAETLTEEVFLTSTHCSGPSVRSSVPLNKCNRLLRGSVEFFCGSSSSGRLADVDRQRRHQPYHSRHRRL
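Read-out: AMC fluorescence (360 nm excitation, 450 nm emission), four reads over 2 min, first-to-third difference used. Conditions: cruzain 1.5 nM, Z-FR-AMC 2 uM, pH 5.5 acetate, 5 mM DTT, 0.01% Triton X-100.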
StopGo reporter: FMDV 2A StopGo reporter, luciferase signal; 410,000 compounds, 1.2% hits; AID 1159524; Potency, µM (titrated, usually from 57.9 µM), inactives show top-dose signal change, negative = less light; human cells with a luciferase reporter of 2A StopGo recoding; control for the full effect not named in the record; active = well fitted falling curve with a large enough effect; inconclusive = small, poorly fitted or top-dose-only effect; inactive = no such curve, though single readings can be large or run the other way; tested in HEK293T cells; also: % is scaled to controls: 0 for no effect and ±100 for the full control effect; nearly all actives have a fitted effect of over 45% in size; luciferase light after 4 h
Cruzain inh noDet: cruzain (T. cruzi) inhibition without detergent | Potency, µM, for inactives: max response, negative = inhibition, hits mostly inhibitors | P25779 | purified cruzain, Z-FR-AMC fluorescence, no detergent | 200,000 compounds, 2.3% hits;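 also: plate controls were enzyme without inhibitor for no effect and buffer without enzyme for full effect; nearly all actives have a fitted effect of over 40% in size; top concentration of the series not given in the record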
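Purified cruzain at 1.5 nM, pre-incubated 15 min with compound at room temperature in 100 mM sodium acetate pH 5.5, 5 mM DTT, 0.00005% Triton X-100. Reaction started with 2 uM Z-FR-AMC; AMC fluorescence increase over 60 s gives rate.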
MARV entry inh: Marburg virus entry inhibition | Marburg virus pseudotyped entry inhibition, cell reporter; control for the full effect not named in the record; about a third of the inactives were read at about 46 µM | 300,000 compounds, 1.8% hits | AID 540276 | Potency, µM (titrated, usually from 37.8 µM), inactives show at the top dose activity change, negative = inhibition, actives largely listed as inhibitors; active = well fitted inhibition curve with a large enough effect; inconclusive = small, poorly fitted or top-dose-only effect, or effect the other way; inactive = flat fitted curve, though single readings scatter; tested in HEK293 cells; about a fifth of its hits are not listed in these tables; also: % is scaled to controls: 0 for no effect and ±100 for the full control effect; luciferase read-out
LASV entry inh: blocks Lassa virus binding to or entry into cells; Lassa virus pseudotype entry inhibition, cell reporter; control for the full effect not named in the record; Potency, µM (series often up to 37.9 µM), inactives show at the highest dose activity change, negative = inhibition, usual class: inhibitors; 300,000 compounds, 1.2% hits; AID 540256; active means well fitted inhibition curve with a large enough effect; inconclusive means small, poorly fitted or top-dose-only effect, or effect the other way; inactive means flat fitted curve, though single readings scatter; tested in HEK293 cells; also: % is scaled to controls: 0 for no effect and ±100 for the full control effect; nearly all actives have a fitted effect of over 50% in size; luciferase read-out
NS1 inh: influenza NS1 inhibition. AID 2326. Potency, µM (highest dose often 46.1 µM), inactives show at the highest dose activity, positive = more growth. S. cerevisiae slowed by influenza A NS1, growth recovery by OD600. 270,000 compounds, 0.4% hits; active means well fitted rising curve with a large enough effect; inconclusive means small, poorly fitted or top-dose-only effect; inactive means no such curve, though single readings can be large or run the other way; also: nearly all actives have a fitted effect of over 50% in size
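Read-out: OD600 growth recovery of NS1-expressing budding yeast. Cells grown overnight at 30C in -URA glucose medium, washed, resuspended and diluted 1:100 in 2% galactose assay medium, pH 6.0. Same strain lacking NS1 served as positive control.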
An asterisk follows results filed as active; ? = inconclusive; · = no result given; & = joins results of further samples; [ ] = remark or other dose. Unless noted, calls follow the shape of the dose curve; as a rule, active = well fitted curve in the direction sought with a large enough effect; inconclusive = small, poorly fitted or top-dose-only effect, or another doubt; inactive = no such curve, though single readings can be large; an effect the other way counts as inactive or inconclusive. Potency is read from the fitted curve at half-maximal effect.

SMILES	RE007 growth inh	SARS PLP yeast	Cruzain inh Det	StopGo reporter	Cruzain inh noDet	MARV entry inh	LASV entry inh	NS1 inh
CCN(C(=O)CSc1nnnn1-c1ccccc1)c1c(N)n(Cc2ccccc2)c(=O)[nH]c1=O	31%	?	3.7%	-8%	-7%	-12%	-8%	-21%
COc1ccc(-c2c(-c3ccc(OCC(=O)NN)cc3O)n[nH]c2C)cc1OC	60%	7%	·	-12%	·	?	-31%[46.1 µM]	?
O=C1CN(C(=O)COC(=O)CNC(=O)c2ccc(Br)o2)c2ccccc2N1	1%	3%	·	-5%	·	1%[46.1 µM]	2%[46.1 µM]	·
C=CCn1c(SCC(=O)Nc2c(C)n(C)n(-c3ccccc3)c2=O)nc2scc(-c3ccccc3)c2c1=O	23%	16%	1.1%	?	?	?	-14%	7%
CN(C)S(=O)(=O)c1ccc(C(=O)NNc2nc(-c3ccccc3)c3cc(Br)ccc3n2)cc1	13%	-10%	-6.4%	?	-6%	?	?	?
O=C1C[C@H]2[C@H](CO)[C@@H](OC(=O)c3ccc(-c4ccccc4)cc3)C[C@H]2O1	4%	-1%	·	1%	·	?	6%[46.1 µM]	-2%
COc1cc(/C=C2\CC/C(=C\c3cc(OC)c(O)c(OC)c3)C2=O)cc(OC)c1O	5%	4%	-10%	22µM*	?	?	-23%	14%
CN(C)c1nc(NC(C)(C)C)nc(NC(C)(C)C)n1	32%	2%	·	-30%	·	?	-8%	·
COc1ccc(CCc2cc(OC)cc(=O)o2)cc1	8%	0%	·	5%	·	·	·	-3%
COc1cc(/C=C2/SC(=S)N(CC(=O)NC(C)(C)C)C2=O)cc(OC)c1OC	-12%	-12%	-7.2%	-24%	?	-1%	-6%	?
CCCS(=O)(=O)c1c(S(=O)(=O)CCC)c2cc(C(C)(C)C)ccn2c1C(=O)c1ccc(C)cc1	·	·	-1.5%	-14%	4%	-4%[46.1 µM]	-16%[46.1 µM]	·
CCOP(=O)(OCC)C(NC(=O)C(F)(F)F)c1ccccc1 (stereo not drawn)	-8%	-2%	-2.8%	0%	7%	-5%	4%	-1%
CCOC1=NN(c2ccc(Cl)cc2)C(=O)/C1=C\N(C)C	-6%	-1%	·	-7%	·	-4%[46.1 µM]	-2%[46.1 µM]	·
COc1ccc(-n2cc(C(=O)NCc3ccccc3)c3ccccc3c2=O)cc1	·	·	-11%	-15%	3%	·	24%[46.1 µM]	·
CCCn1c(=N)c(C(=O)NCc2cccnc2)cc2c(=O)n3ccccc3nc21	·	·	-9.4%	-30%	-11%	?	-10%[46.1 µM]	·
COC(=O)CNc1n[nH]c(=S)[nH]c1=O	23%	2%	0.2%	-22%	-7%	6%	2%	-2%
COc1ccc(S(=O)(=O)N2CCC3(CC2)OCCN3S(=O)(=O)c2c(C)cc(C)cc2C)cc1	3%	·	·	9%	·	?	?	·
CCn1ncc(CN2CCCC(C(=O)Nc3cccc(-c4cc5ccccc5[nH]4)c3)C2)c1C (stereo not drawn)	8%	2%	·	?	·	?	13µM*	?
CC[C@@H](C)C(C(=O)N1CCN(C(=O)OC(C)(C)C)CC1)n1cc(-c2cn([C@@H](C)C(=O)N3CCN(C(=O)OC(C)(C)C)CC3)nn2)nn1 (stereo partly drawn)	28%	-1%	·	-17%	·	·	·	-4%
COc1ccc(C)cc1Nc1nc2c(S(=O)(=O)c3cccc(Cl)c3)nnn2c2ccsc12	·	·	0.1%	-9%	8%	·	9%[46.1 µM]	·
O=C(CN1CCN(CC(=O)Nc2ccccc2Cl)CC1)NCC1(N2CCOCC2)CCCCC1	-4%	-2%	·	-12%	·	?	-1%	·
COc1ccc(S(=O)(=O)N2CCCC2)cc1Br	0%	?	·	-8%	·	13%	5%	-3%
Cc1ccc(NC(=O)CSC2=C(C#N)C(c3ccco3)C3=C(CC(C)(C)CC3=O)N2)cc1 (stereo not drawn)	7%	3%	-10%	-7%	-20%	-17%&-17%	?	7%
Cc1ccccc1C1CCCN(Cc2nc(CC3CC3)no2)C1 (stereo not drawn)	-21%	-1%	·	-10%	·	5%[46.1 µM]	-29%[46.1 µM]	5%
O=C(NNC(=O)c1ccccn1)c1ccc(OC(F)F)cc1	?	3%	·	5%	·	?	?	·

New compounds follow.
SMILES	RE007 growth inh	SARS PLP yeast	Cruzain inh Det	StopGo reporter	Cruzain inh noDet	MARV entry inh	LASV entry inh	NS1 inh
Cc1ccccc1NCC(=O)N/N=C/c1c(C)c(C(=O)c2ccc(Cl)cc2)n2ccccc12	-1%	?	-9.3%	-25%	7.9µM*	?	?	25%
CCOc1ccc(C(=O)Nc2cccc(-c3nc4cccnc4s3)c2C)cc1OCC	·	·	-4.4%	-27%	9%	-27%[46.1 µM]	-20%[46.1 µM]	·
CCOc1cc(C(=O)N(C)c2ccccc2)cc(OCC)c1OCC	1%	-3%	12%	?	18%	3%	-8%	-13%
CCOc1ccc(NC(=O)CSc2nc3c([nH]c4ccccc43)c(=O)n2-c2cc(C)cc(C)c2)cc1	·	·	-0.6%	?	6%	·	28%[46.1 µM]	·
CCCCCCCC(=O)NNC(=O)c1ccc([N+](=O)[O-])cc1	-21%	-1%	-0.6%	5%	2%	1%	-1%	-11%
Cn1cc([N+](=O)[O-])c(C(=O)Nc2cnn(Cc3ccc(F)cc3)c2)n1	0%	-13%	0.1%	-3%	-7%	-20%	-15%	16%
O=C(O)c1cccc(Cn2c(Cl)c(/C=N/NC(=O)c3ccccc3O)sc2=O)c1	3%	-1%	·	-14%	·	·	·	1%
CSc1ccccc1NC(=O)C1CCN(S(C)(=O)=O)CC1	-20%	1%	·	-27%	·	·	·	6%
CC(C)(C)c1ccc(C(=O)NCC(=O)N2CCC3(CC2)NCCc2[nH]cnc23)cc1	2%	-1%	·	-10%	·	·	·	-15%
Cc1ccc(NC(=O)C(=O)C2C(=O)Nc3ccccc32)cc1 (stereo not drawn)	3%	0%	·	21%	·	-15%	3%	-2%
C=CCN1C(=O)/C(=C2/Sc3ccc(OC)cc3N2CC)SC1=S	-2%	2%	·	-22%	·	·	·	14%
CSCC(C)N1CCC(CCC(=O)NC2CC2)CC1 (stereo not drawn)	-13%	1%	·	-2%	·	·	·	0%
COc1cc(OC)cc(N2C(=O)CSCC2=O)c1	-5%	0%	·	-13%	·	·	·	-4%
COc1cc(C(=O)NCc2nnnn2-c2ccc(C)c(C)c2)cc(OC)c1OC	·	·	4.4%	-16%	-2%	·	2%[46.1 µM]	·
COc1cc(CN2CCN(C(=O)c3cccc4ccccc34)CC2)cc(OC)c1O	-8%	-1%	·	-8%	·	·	·	-6%
CN1C2CCC1CC(NS(=O)(=O)c1cccc(C(F)(F)F)c1)C2 (stereo not drawn)	-11%	-4%	·	6%	·	?	6%[46.1 µM]	2%
O=S(=O)(c1ccccc1)N1CCN(CCc2ccccc2)CC1	-6%	6%	·	?	·	-28%	5%	13%
Cc1ccc2sc3ccc(NC(=O)c4ccccc4Cl)cc3c(=O)c2c1	3%	-1%	2.8%	15%	25µM*	?	1%	-8%
COc1ccccc1C1/C(=C(/O)c2ccccc2)C(=O)C(=O)N1CC(C)O (stereo not drawn)	6%	-1%	3.9%	-2%	-4%	12%	1%	2%
COC(=O)/C=C/c1ccc(OC(=O)OC)c(OC(=O)OC)c1	-1%	-31%	-5.8%	-15%	4%	-30%	-20%	0%
C/C(Cc1ccccc1)=N\NC(=O)CNC(=O)c1cccc(Br)c1	5%	-8%	-0.3%	-3%	2%	-3%	4%	17%
CCOC(=O)c1sc(NC(=O)COc2ccccc2Cl)c(C(=O)OCC)c1C	·	·	-1.3%	12%	-2%	·	3%[46.1 µM]	·
O=C(Nc1ccc2c(c1)CCC2)C1CCN(c2ncccn2)CC1	16%	-1%	4.8%	28%	5%	-8%	-7%	-9%
CSc1ccc(NS(=O)(=O)c2ccc(-n3cnnn3)cc2)cc1	16%	4%	·	-8%	·	9%	13%	12%
O=C1NC(=O)C(CCc2ccncc2)(CCc2ccncc2)C(=O)N1Cc1ccc(F)cc1	6%	-1%	·	48%[activator]	·	-13%[46.1 µM]	-22%	-1%

Continuation.
SMILES	RE007 growth inh	SARS PLP yeast	Cruzain inh Det	StopGo reporter	Cruzain inh noDet	MARV entry inh	LASV entry inh	NS1 inh
C=CCN(CC=C)C(=O)C(=O)c1ccn(-c2c(C)csc2C(=O)OC)c1	8%	0%	·	0%	·	·	·	-9%
CCN1CCCC1CNC(=O)c1cc2ccc(OC)cc2[nH]1 (stereo not drawn)	4%	0%	·	20%	·	·	·	0%
O=C(NCc1ccccc1)c1csc(-c2cccnc2)n1	0%	-6%	·	2%	·	-9%	?	-11%
CC(=O)Oc1ccccc1C1C[C@]2(C)CC(=O)NC2N1C(C)=O (stereo partly drawn)	2%	-1%	·	-15%	·	·	·	-1%
Cc1c(N2C(=O)CS/C2=N\N=C\c2ccccc2O)c(=O)n(-c2ccccc2)n1C	9%	6%	-3.9%	34%[activator]	2%	19%	4%	18%
N#CCc1nc(C(c2ccccc2)c2ccccc2)no1	-6%	2%	·	?	·	-18%[46.1 µM]	·	?
Cc1cccc(C(=O)NNS(=O)(=O)c2ccc(F)cc2)c1	5%	-3%	·	3%	·	?	-23%[46.1 µM]	1%
O=S(=O)(c1cnccc1N1CCN(/N=C/c2ccc(Br)cc2)CC1)N1CCCCC1	-5%	6%	0.0%	-10%	30%	?	10%	5%
Cc1cc(-n2c(C)cc(C(=O)CSc3nncn3C(C)C)c2C)no1	-14%	-2%	·	9%	·	-2%	2%	·
COC(=O)C1CCN(C(=O)COC(=O)COc2ccc(C#N)cc2)CC1	1%	-3%	·	-14%	·	5%[46.1 µM]	2%	-1%
COc1ccc(NC(=O)CS(=O)(=O)Cc2nc(-c3ccc(C)cc3)oc2C)cc1	8%	?	·	-11%	·	0%[46.1 µM]	0%[46.1 µM]	-6%

The order is random, and some 4.8% of all compounds hit somewhere here.
